# Compound activity from PubChem BioAssay.
# Vaccinia inh – blocks a specific stage of Vaccinia orthopoxvirus infection; Vaccinia-infected cells, mCherry/Venus stage reporter fluorescence; hits give low values; some inactives read as strong as hits; activity change (mCherry), % (test concentration not listed); actives 0.01% (n = 89,000);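 active = mCherry past -33% and 40 or more points under the early reporter, replicates agreeing; inconclusive = past -33% without that gap or agreement; tested in A549 cells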;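 note: scaled between vehicle wells and reference inhibitor wells; 23 nL library stock went into each well; one replicate is shown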
# Vaccinia inh Venus – further read-out of Vaccinia inh, marked with its call; activity change (Venus), %; measured here: Venus reporter, other viral stage;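 negative = less Venus signal; first of two replicates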
# * = called active by the depositor; ? = inconclusive; . = no result given. This is a subset. The share of hits here may be higher or lower than overall.
SMILES,Vaccinia inh,Vaccinia inh Venus
N#C[C@@H]1[C@@H](c2ccc(C3=CCCC3)cc2)[C@H](CO)N1C(=O)c1cccc(F)c1,19,18
COc1cccc(C#Cc2ccc([C@@H]3[C@@H](CO)N4C(=O)CN(C(=O)C5CC5)C[C@H]34)cc2)c1,-16,-17
CCC(=O)N(C)C[C@H]1Oc2cc(C#CCC3CCCC3)ccc2S(=O)(=O)N([C@@H](C)CO)C[C@@H]1C,?,.
Cc1noc(C)c1S(=O)(=O)Nc1ccc2c(c1)CC(=O)N([C@H](C)CO)C[C@@H](C)[C@@H](CN(C)Cc1ccc3c(c1)OCO3)O2,10,11
C[C@H]1CN([C@@H](C)CO)C(=O)c2cc(-c3cccc(F)c3)cnc2O[C@@H]1CN(C)C(=O)C1CCCCC1,?,.
C[C@@H]1CN([C@@H](C)CO)S(=O)(=O)c2ccc(-c3ccncc3)cc2O[C@H]1CN(C)C(=O)Nc1ccc(F)cc1,12,6
COc1cccc(S(=O)(=O)N(C)C[C@@H]2Oc3ncc(-c4cccc(C(=O)N(C)C)c4)cc3C(=O)N([C@@H](C)CO)C[C@@H]2C)c1,-2,1
CN(C)CC(=O)Nc1ccc2c(c1)[C@@H]1C[C@H](CC(=O)NCc3ccc(Cl)cc3)O[C@@H](CO)[C@@H]1O2,-5,6
C[C@H]1CN([C@@H](C)CO)C(=O)Cc2cc(NS(=O)(=O)c3ccc(Cl)cc3)ccc2O[C@@H]1CN(C)Cc1ccc(C(=O)O)cc1,13,12
COc1cccc(C#Cc2ccc([C@H]3[C@@H](CO)N4C(=O)CN(C(=O)Cc5cccnc5)C[C@H]34)cc2)c1,-22,-23
O=C(C1CCOCC1)N1C[C@H]2[C@@H](c3ccccc31)[C@H](CO)N2C(=O)Cc1ccccc1,13,14
C[C@@H]1CN([C@@H](C)CO)C(=O)c2cc(NC(=O)Nc3ccc(C(F)(F)F)cc3)ccc2O[C@H]1CN(C)Cc1ccncc1,-17,-3
CCCC(=O)Nc1ccc2c(c1)OC[C@@H](C)N(C(=O)CC1CC1)C[C@H](C)[C@H](OC)CN(C)C2=O,25,14
COc1ccc(NC(=O)N(C)C[C@@H]2Oc3c(NC(=O)Nc4cccc5ccccc45)cccc3C(=O)N([C@H](C)CO)C[C@@H]2C)cc1,-9,-1
O=C(C[C@@H]1C[C@@H]2c3cc(NC(=O)c4ccc5c(c4)OCO5)ccc3O[C@@H]2[C@H](CO)O1)NCc1ccc(Cl)cc1,13,10
Cc1noc(C)c1NC(=O)N(C)C[C@@H]1Oc2ccc(NS(=O)(=O)c3ccccc3)cc2CC(=O)N([C@H](C)CO)C[C@H]1C,20,16
C[C@H]1CN([C@@H](C)CO)C(=O)c2cc(C#Cc3ccccn3)cnc2O[C@@H]1CN(C)Cc1ccncc1,12,18
C[C@H]1CN([C@@H](C)CO)C(=O)c2cc(NS(=O)(=O)c3ccc(Cl)cc3)ccc2O[C@@H]1CN(C)S(=O)(=O)c1cn(C)cn1,4,0
C[C@@H]1CN([C@H](C)CO)C(=O)Cc2cc(NS(C)(=O)=O)ccc2O[C@@H]1CN(C)Cc1ccc(C(=O)Nc2ccccc2N)cc1,19,20
COc1ccc(NC(=O)Nc2ccc3c(c2)C(=O)N([C@@H](C)CO)C[C@@H](C)[C@H](CN(C)C(=O)Nc2ccccc2)O3)cc1,3,11
CCS(=O)(=O)Nc1ccc2c(c1)C(=O)N(C)C[C@@H](OC)[C@H](C)CN(C(C)=O)[C@@H](C)CO2,11,0
COCC(=O)N(C)C[C@H]1Oc2cc(C#CCC3CCCC3)ccc2S(=O)(=O)N([C@H](C)CO)C[C@H]1C,?,.
C[C@@H]1CCCCO[C@H](CN(C)C(=O)CCCN(C)C)[C@@H](C)CN([C@H](C)CO)C(=O)c2cc(NC(=O)Cc3ccccc3)ccc2O1,31,10
C[C@H](CO)N1C[C@H](C)[C@H](CN(C)Cc2ccc(C(F)(F)F)cc2)Oc2c(NS(=O)(=O)c3ccc(Cl)cc3)cccc2C1=O,?,.
CO[C@H]1CN(C)C(=O)c2cc(NC(=O)NC(C)C)ccc2OC[C@@H](C)N(CC2CC2)C[C@@H]1C,0,1

# Complete entries, quoted from the list. Order of screens: Vaccinia inh | Vaccinia inh Venus
# `C[C@@H]1CN([C@@H](C)CO)C(=O)c2cc(NC(=O)Nc3ccc(C(F)(F)F)cc3)ccc2O[C@H]1CN(C)Cc1ccncc1` in the list: -17 | -3
# `C[C@H]1CN([C@@H](C)CO)C(=O)c2cc(C#Cc3ccccn3)cnc2O[C@@H]1CN(C)Cc1ccncc1` in the list: 12 | 18

# Given with two lines to a compound: six of the compounds above
# Order of values: Vaccinia inh | Vaccinia inh Venus
- C[C@H]1CN([C@@H](C)CO)C(=O)Cc2cc(NS(=O)(=O)c3ccc(Cl)cc3)ccc2O[C@@H]1CN(C)Cc1ccc(C(=O)O)cc1
 : 13 | 12
- COc1cccc(C#Cc2ccc([C@H]3[C@@H](CO)N4C(=O)CN(C(=O)Cc5cccnc5)C[C@H]34)cc2)c1
 : -22 | -23
- O=C(C1CCOCC1)N1C[C@H]2[C@@H](c3ccccc31)[C@H](CO)N2C(=O)Cc1ccccc1
 : 13 | 14
- C[C@@H]1CN([C@@H](C)CO)C(=O)c2cc(NC(=O)Nc3ccc(C(F)(F)F)cc3)ccc2O[C@H]1CN(C)Cc1ccncc1
 : -17 | -3
- CCCC(=O)Nc1ccc2c(c1)OC[C@@H](C)N(C(=O)CC1CC1)C[C@H](C)[C@H](OC)CN(C)C2=O
 : 25 | 14
- COc1ccc(NC(=O)N(C)C[C@@H]2Oc3c(NC(=O)Nc4cccc5ccccc45)cccc3C(=O)N([C@H](C)CO)C[C@@H]2C)cc1
 : -9 | -1

# Following part.
SMILES,Vaccinia inh,Vaccinia inh Venus
C[C@@H]1CN([C@@H](C)CO)C(=O)c2cc(C#CC3(O)CCCC3)cnc2O[C@@H]1CN(C)C(=O)CN(C)C,17,15
C[C@@H]1CN([C@@H](C)CO)C(=O)c2cccc(NS(C)(=O)=O)c2O[C@@H]1CN(C)C(=O)Nc1ccccc1,20,10
O=C(CC1CC1)N1CC(=O)N2[C@H](CO)[C@@H](c3ccc(C#Cc4ccccc4)cc3)[C@@H]2C1,-22,-27
C[C@@H]1CN([C@H](C)CO)C(=O)c2cc(NC(=O)CCC(F)(F)F)ccc2O[C@@H](C)CCCCO[C@@H]1CN(C)S(C)(=O)=O,-13,-1
O=C(CCN1CCCCC1)N[C@H]1CC[C@@H](CCNC(=O)c2cc(Cl)cc(Cl)c2)O[C@@H]1CO,-2,-1
C[C@H](CO)N1C[C@H](C)[C@H](CN(C)S(=O)(=O)c2ccc(Cl)cc2)Oc2ccc(NS(=O)(=O)c3ccc(Cl)cc3)cc2CC1=O,-12,-3
C[C@@H]1CN([C@@H](C)CO)C(=O)c2cc(/C=C/c3ccccc3)cnc2O[C@H]1CN(C)C(=O)C1CCCCC1,-24,-7
O=C(C[C@H]1C[C@@H]2c3cc(NC(=O)Nc4ccccc4)ccc3O[C@@H]2[C@H](CO)O1)NCC1CC1,6,4
COCC(=O)Nc1ccc2c(c1)OC[C@@H](C)N(Cc1ccccc1)C[C@H](C)[C@@H](OC)CN(C)C2=O,-21,-18
C/C=C/c1ccc([C@@H]2[C@@H](CO)N3CCCCN(S(=O)(=O)c4cccc(C)c4)C[C@@H]23)cc1,4,-5
CN1C(=O)c2cc(NC(=O)Cc3cccs3)ccc2OC[C@H]2O[C@H](CC(=O)NCC3CC3)CC[C@@H]21,6,7
CS(=O)(=O)N1C[C@H](O)COC[C@@H]2O[C@@H](CC(=O)NCCc3ccncc3)CC[C@H]21,3,-4
COc1ccc(CN(C)C[C@H]2Oc3ccc(NC(=O)CCCCCC(=O)Nc4ccccc4N)cc3CC(=O)N([C@H](C)CO)C[C@H]2C)cc1,-8,3
COc1cccc(NC(=O)N[C@@H]2CC[C@@H](CC(=O)Nc3ccc(-c4ccccc4)cc3)O[C@H]2CO)c1,-7,0
CC(C)C#Cc1ccc2c(c1)O[C@@H](CN(C)C(=O)c1cccnc1)[C@@H](C)CN([C@@H](C)CO)S2(=O)=O,7,5
O=C(C[C@H]1C[C@H]2c3cc(NC(=O)Nc4ccccc4)ccc3O[C@H]2[C@H](CO)O1)NCC1CC1,1,0
CO[C@@H]1CN(C)C(=O)c2ccc(NS(=O)(=O)c3c(C)noc3C)cc2OC[C@@H](C)NC[C@@H]1C,9,5
Cc1ccc(CN(C)C[C@H]2OCc3cnnn3CCCC(=O)N([C@@H](C)CO)C[C@@H]2C)cc1,14,12
CCCN(C)C[C@@H]1OCCCC[C@@H](C)Oc2ccc(NC(=O)Nc3ccccc3)cc2C(=O)N([C@H](C)CO)C[C@@H]1C,-1,-3
CN1C(=O)c2cc(NC(=O)c3cccc(F)c3)ccc2OC[C@@H]2O[C@@H](CC(=O)NCC3CCCCC3)CC[C@@H]21,?,.
CO[C@@H]1CN(C)C(=O)c2cc(NC(=O)c3cnccn3)ccc2OC[C@H](C)N(C(=O)C2CC2)C[C@H]1C,8,-1
CN(C)CC(=O)N[C@@H]1CC[C@@H](CCNC(=O)Nc2ccc(C(F)(F)F)cc2)O[C@@H]1CO,-5,-1
COCC(=O)N1C[C@@H](C)[C@H](OC)CN(C)C(=O)c2ccc(NC(=O)NC(C)C)cc2OC[C@H]1C,1,-6
O=C(C[C@@H]1C=C[C@@H](NC(=O)C2CC2)[C@@H](CO)O1)Nc1nccs1,-4,7
O=C(C[C@@H]1C[C@@H]2c3cc(NC(=O)NC4CCCC4)ccc3O[C@@H]2[C@H](CO)O1)NCc1cccc(F)c1,1,1

# Later entries
SMILES,Vaccinia inh,Vaccinia inh Venus
COCC(=O)Nc1ccc2c(c1)OC[C@H](C)N(Cc1ccccn1)C[C@H](C)[C@@H](OC)CN(C)C2=O,4,2
C[C@@H]1CN([C@@H](C)CO)C(=O)c2cc(-c3ccc(F)cc3)cnc2O[C@@H]1CN(C)Cc1ccc(C(=O)O)cc1,18,8
CCCC(=O)N1CC2(CN(C(=O)NC(C)C)C2)c2c([nH]c3cc(OC)ccc23)[C@@H]1CO,12,8
C[C@@H]1CN([C@@H](C)CO)C(=O)c2cc(NC(=O)CCC(F)(F)F)ccc2O[C@@H](C)CCCCO[C@H]1CN(C)C(=O)Nc1ccccc1,-1,7
C[C@H]1CN([C@@H](C)CO)C(=O)c2cccc(NC(=O)C3CC3)c2O[C@@H]1CN(C)C(=O)NC1CCCCC1,29,29
COc1ccc(NC(=O)N(C)C[C@H]2Oc3cc(C#CCN(C)C)ccc3S(=O)(=O)N([C@H](C)CO)C[C@@H]2C)cc1,20,18
O=C(N[C@H]1CC[C@H](CCn2cc(-c3ccccn3)nn2)O[C@H]1CO)c1ccc(F)cc1,-3,1
C[C@@H]1CN([C@@H](C)CO)C(=O)c2cc(-c3cccc(F)c3)cnc2O[C@@H]1CN(C)S(=O)(=O)c1cccc(F)c1,-15,-2
Cc1ccc(-c2cnc3c(c2)C(=O)N([C@H](C)CO)C[C@@H](C)[C@H](CN(C)C(=O)c2cccc(F)c2)O3)cc1,-33,-19
COc1ccc(S(=O)(=O)Nc2cccc3c2O[C@@H](CN(C)C(=O)Nc2c(C)noc2C)[C@@H](C)CN([C@H](C)CO)C3=O)cc1,12,11
CCCNC(=O)N1[C@H](CO)[C@H](c2ccccc2)[C@@H]1CNC(C)=O,20,23
COc1ccc(S(=O)(=O)Nc2ccc3c(c2)C(=O)N([C@H](C)CO)C[C@@H](C)[C@@H](CN(C)S(=O)(=O)c2cn(C)cn2)OCCCC[C@H](C)O3)cc1,41,28
COCC(=O)Nc1ccc2c(c1)[C@H]1C[C@@H](CC(=O)N(C)C)O[C@@H](CO)[C@H]1O2,10,8
C[C@H]1CCCCO[C@H](CN(C)C(=O)Nc2cccc3ccccc23)[C@@H](C)CN([C@@H](C)CO)C(=O)c2cc(NC(=O)NC3CCCCC3)ccc2O1,13,19
O=C(Nc1cccc(F)c1)N1CC(=O)N2[C@H](C1)[C@H](c1ccc(C#CCC3CCCC3)cc1)[C@@H]2CO,-15,-15
CCCNC(=O)N(C)C[C@H]1Oc2ncc(C#C[C@@H](C)O)cc2C(=O)N([C@H](C)CO)C[C@H]1C,23,27
O=C(C[C@H]1CC[C@H]2NC[C@@H](O)COC[C@@H]2O1)NCc1ccc(Oc2ccccc2)cc1,10,6
COc1cccc(CNC(=O)C[C@@H]2CC[C@H](NC(=O)C3CCOCC3)[C@H](CO)O2)c1,14,18
C[C@H](CO)N1C[C@H](C)[C@H](CN(C)S(=O)(=O)c2cccs2)Oc2c(NS(=O)(=O)c3cccs3)cccc2C1=O,21,5
C[C@@H]1CN([C@H](C)CO)C(=O)c2cccc(NC(=O)C3CCCCC3)c2O[C@H]1CN(C)Cc1ccc(Cl)c(Cl)c1,-30,-27
COc1ccccc1-c1ccc([C@H]2[C@@H](CO)N[C@@H]2CNC(=O)C2CCCC2)cc1,-12,-15
CCC(=O)N(C)C[C@H]1Oc2cc(C#CC(C)C)ccc2S(=O)(=O)N([C@H](C)CO)C[C@@H]1C,3,-6
C[C@H](CO)N1C[C@H](C)[C@@H](CN(C)C(=O)NC2CCCCC2)Oc2ccc(NC(=O)C3CC3)cc2C1=O,24,18
C[C@@H]1CCCCO[C@@H](CN(C)C(=O)c2ccncc2)[C@H](C)CN([C@@H](C)CO)C(=O)c2cc(NS(=O)(=O)c3ccccc3)ccc2O1,29,5
CCS(=O)(=O)Nc1ccc2c(c1)C(=O)N(C)[C@@H]1CC[C@H](CC(=O)N[C@H]3CCN(Cc4ccccc4)C3)O[C@H]1CO2,5,12
COc1ccccc1C(=O)Nc1ccc2c(c1)C(=O)N(C)[C@H]1CC[C@H](CC(=O)Nc3cccc(C(C)C)c3)O[C@@H]1CO2,-34,-13
C[C@@H]1CN([C@@H](C)CO)C(=O)c2cc(C#CC3(O)CCCC3)cnc2O[C@@H]1CN(C)C(=O)C1CCCCC1,10,12
COc1ccc(S(=O)(=O)N(C)C[C@H]2OCCCC[C@@H](C)Oc3ccc(NC(=O)NC(C)C)cc3C(=O)N([C@@H](C)CO)C[C@H]2C)cc1,-16,-7
